Bioassay records as filed in PubChem.
FGF22 binding – FGF22 (human) thermal shift binding. Q9HCT0. recombinant FGF22 thermal shift, SYPRO orange fluorescence; percent of sucrose octasulfate shift, DMSO zero. calls only at 9.99 µM. 340,000 tested, 1.5% active;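 active means melting point raised past a set limit in the mean and every replicate; inconclusive means no clear call; three in four hits are not shown here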
Target sequence (Q9HCT0 whole entry, looked up): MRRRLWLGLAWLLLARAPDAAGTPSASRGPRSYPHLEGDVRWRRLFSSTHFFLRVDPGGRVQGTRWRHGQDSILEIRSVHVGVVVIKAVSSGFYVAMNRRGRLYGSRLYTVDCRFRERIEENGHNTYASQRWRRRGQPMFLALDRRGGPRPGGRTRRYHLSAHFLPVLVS
Beta apoptosis – blocks beta cell apoptosis | AID 435005 | protection from apoptosis, % (test concentration not listed) | 300,000 tested, 0.8% active | INS-1E cytokine-induced death, ATP luminescence, 48 h; percent of positive-control rescue, neutral wells zero;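 active means all replicates at 75% or more, or half of them and the mean; inconclusive means half reach 75% but not the mean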;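 further: 0% = cytokine-treated negative control wells and 100% = positive control rescue; higher means more ATP so stronger rescue from cytokine killing; wells of about 40 µL received 100 nL stock; the first replicate is given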
Calb FLC – C. albicans growth modulation with fluconazole. C. albicans CaCi-2 (fluconazole-resistant clinical isolate) + fluconazole, Alamar Blue growth, 48 h. growth inhibition, % (concentration not given with the values). 300,000 tested, 0.57% active. AID 1979;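 active means most replicates above 75%; inconclusive means exactly half above 75%; inactive means most below 75%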;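 further: all wells also contain fluconazole at 8 µg/ml as a sub-toxic cotreatment; 0% = median of DMSO wells and 100% = median of geldanamycin control wells; wells of about 8 µL received 7.5 nL stock; the first replicate is given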
T cruzi inh – blocks replication of Trypanosoma cruzi. inhibition, % (no concentration beside the values). T. cruzi beta-gal in NIH3T3, luminescence, 90 h. 300,000 tested, 1.4% active;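 active means mean inhibition across valid replicates above about 55%, limit read from the data; inconclusive means mean below that limit but half or more replicates reach it; inactive means mean below it, under half of replicates reach it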;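 further: signal also drops with host cell toxicity which is not excluded here; 0% = plate median of DMSO wells and 100% = zero luminescence signal; higher percent means less beta-gal luminescence so fewer parasites; stock transfer was 50 nL into about 50 µL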
RanGTP-Imp inh – inhibitors of RanGTP-importin-beta interaction, primary screen, biochemical, FRET, CFP-Ran, YFP-importin-beta, homogeneous | cell-free CFP-Ran/YFP-importin-beta FRET ratio | inhibition, % (test concentration not listed) | 300,000 tested, 1.1% active | AID 2216;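 active means most replicates above 15%; inconclusive means exactly half above 15%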;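 further: 0% = DMSO wells and 100% = Ran loaded with GDP instead of GTP; wells of about 40 µL received 100 nL stock; the first replicate is given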
rRNA inh HTS – selective bacterial rRNA inhibition in E. coli; E. coli WT GFP vs humanized-ribosome RFP mutants, fluorescence, 24 h; hits give low values; DMSO median 0, no signal -100; GFP signal change (wild-type ribosome), % (test concentration not listed); 350,000 tested, 1.6% active; AID 720706;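 active means significant combined selectivity score with lowered wild-type GFP, culture density cut under 30%, mutant RFP and density less affected; inactive means any of these conditions unmet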; further: one replicate is shown; some compounds called inactive have numbers as strong as hits
ALR H2O2 inh – blocks human ALR sulfhydryl oxidase activity; P55789; purified ALR, DTT oxidation, H2O2 HRP-luminol luminescence; inhibition, % (no concentration beside the values); 290,000 tested, 3.8% active; AID 485317;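 active means mean and each replicate at 75% or more; inconclusive means only one of the two met; inactive means neither met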;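 further: stock transfer was 7.5 nL into about 7.5 µL; 0% = neutral wells and 100% = wells with inactivated enzyme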
Target sequence (P55789 whole entry, looked up): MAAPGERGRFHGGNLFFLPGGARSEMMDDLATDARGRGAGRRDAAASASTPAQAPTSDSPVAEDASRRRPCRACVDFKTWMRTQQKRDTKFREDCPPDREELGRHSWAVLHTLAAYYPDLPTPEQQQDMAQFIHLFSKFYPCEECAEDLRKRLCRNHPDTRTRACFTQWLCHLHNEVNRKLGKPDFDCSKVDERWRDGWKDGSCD
AF4-AF9 inh – blocks AF4 peptide binding to human AF9; P42568; inhibition, % at 10 µM; AlphaScreen, biotin-AF4 peptide binding to FLAG-AF9; 350,000 tested, 0.47% active;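 active means every replicate reaching a set inhibition limit, whatever the replicate mean, cut at about 25% in these data; inconclusive means mean inhibition reaches that limit but some replicates miss it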;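 further: 0% = plate neutral control median and 100% = total signal loss; the record names both 10 and 1 µM as test concentration; the first replicate is given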
Target sequence (P42568 whole entry, looked up): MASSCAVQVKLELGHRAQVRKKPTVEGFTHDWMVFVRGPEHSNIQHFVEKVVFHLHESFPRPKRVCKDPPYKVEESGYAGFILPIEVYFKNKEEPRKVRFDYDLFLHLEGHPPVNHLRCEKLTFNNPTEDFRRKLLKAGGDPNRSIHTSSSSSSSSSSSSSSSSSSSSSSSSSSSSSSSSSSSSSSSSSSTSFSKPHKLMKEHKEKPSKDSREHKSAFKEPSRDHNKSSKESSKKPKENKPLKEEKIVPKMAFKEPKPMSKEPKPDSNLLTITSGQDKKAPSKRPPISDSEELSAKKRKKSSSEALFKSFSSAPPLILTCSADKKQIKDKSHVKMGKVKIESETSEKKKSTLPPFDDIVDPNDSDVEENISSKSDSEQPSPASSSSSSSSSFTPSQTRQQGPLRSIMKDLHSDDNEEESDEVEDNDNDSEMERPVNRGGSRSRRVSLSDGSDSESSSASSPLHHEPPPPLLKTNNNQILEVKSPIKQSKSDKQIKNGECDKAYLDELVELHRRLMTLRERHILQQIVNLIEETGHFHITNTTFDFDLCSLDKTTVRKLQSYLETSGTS
rRNA inh HTS OD600 – further read-out of rRNA inh HTS, marked with its call; OD600 change, %; measured here: OD600 growth;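 optical density of the mix in the first replicate; 0 = DMSO median and -100 = no signal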
rRNA inh HTS RFP – second read-out of rRNA inh HTS, no call of its own (marks repeat the call); RFP signal change, %; measured here: RFP humanized mutant strains;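 first replicate; 0 = DMSO median and -100 = no signal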
The depositor's hits bear a star; i = inactive; u = inconclusive; x = not tested or not shown; + = active, no number. A portion of the library (hit frequency here may not be typical).

SMILES	FGF22 binding	Beta apoptosis	Calb FLC	T cruzi inh	RanGTP-Imp inh	rRNA inh HTS	rRNA inh HTS OD600	rRNA inh HTS RFP	ALR H2O2 inh	AF4-AF9 inh
CCCCC(=O)N/N=C/c1sccc1C	i	0	-7	-8	-2.2	1	-9	-2.5	1	-3.2
COc1ccc(/C=N/NC(=O)CN2CCCC2)cc1	i	1	15	-4	-1.8	16	11	0.0	27	1.0
O=C(COc1ccc2ccc(=O)oc2c1)Nc1nccs1	i	x	-1	-24	1.3	1	-3	1.9	-1	-5.9
COc1ccc(-n2nc(C(=O)N3CCC(N4CCCCC4)CC3)c3c4ccccc4n(C)c3c2=O)cc1	i	-2	-4	23	3.7	10	11	1.6	38	-0.1
CNC(=O)c1[nH]cnc1C(=O)N[C@@H](CCCCNC(=O)OC(C)(C)C)C(=O)OC(C)(C)C	i	-3	-2	2	0.9	5	25	-2.5	3	6.8
Cc1ccc(S(=O)(=O)NN2C(=O)/C(=C/c3ccc(F)cc3)SC2=S)cc1	i	-1	11	3	-2.6	9	5	1.2	0	-5.8
NC(=O)C1CCN(CC(=O)N2N=CCC2c2ccccc2)CC1 (centres undefined)	i	4	u	-17	6.5	7	15	2.0	-4	-8.4
O=C(c1cccc([N+](=O)[O-])c1)N1CCCN(C(=O)c2cccc([N+](=O)[O-])c2)CC1	x	-15	1	-36	-1.6	x	x	x	0	x
COc1ccccc1N1CCN(CC(=O)Nc2nccs2)CC1	i	x	9	-5	u	-1	0	3.0	x	1.5
O=C(O)c1ccc2c(c1)C(=O)N(c1ccc(C(=O)OCC(=O)c3ccccc3)cc1)C2=O	x	-4	-5	-5	-7.7	-7	1	1.2	30	0.9
COc1ccc(S(=O)(=O)Nc2c(O)c3ccccc3oc2=O)cc1	i	-1	-7	-8	2.4	-7	-5	-0.9	5	-3.8
O=C(O)C1Nc2c(Cl)cc(Cl)c(Cl)c2C2C=CCC12 (centres undefined)	i	-2	12	-2	1.3	-17	-12	-2.6	x	-4.0
CC(OC(=O)Cc1ccccc1[N+](=O)[O-])C(=O)Nc1ccc(Cl)cn1 (centres undefined)	i	2	-2	5	1.8	-1	-10	0.7	2	1.1
CCN(CC)c1cc2nonc2c2nonc12	x	-2	8	-3	1.1	x	x	x	-1	x
CCSC1=N/C(=C\C=C2/Oc3ccccc3N2CC)C(=O)S1	i	5	10	0	3.3	3	-1	6.2	x	1.3
O=C(Nc1nc(-c2cccs2)cs1)c1ccc([N+](=O)[O-])o1	i	-11	x	x	x	-9	5	-0.6	-53	1.4
O=C(O)c1cccc(NS(=O)(=O)c2ccc(Cl)c(C(=O)Nc3cccc([N+](=O)[O-])c3)c2)c1	+	-4	0	-3	1.8	-7	-3	-0.5	51	-3.6
CC(=C1C(=O)c2ccccc2C1=O)N1CCN(Cc2ccccc2)CC1	i	-14	-4	7	4.1	9	1	1.9	-30	-0.3
Cc1nc(NNC(=O)c2ccc(Cl)cc2Cl)cc(-c2ccccc2)n1	x	1	-1	-2	-4.1	x	x	x	-3	x
COc1ccc(N2CCN(C(=O)C3CCN(C(=O)c4cccc(Cl)c4)CC3)CC2)cc1	i	-1	-7	2	-0.5	0	-5	-2.2	51	0.9

Three entries from above, arranged by the number in rRNA inh HTS OD600, low to high.
mol	rRNA inh HTS OD600
COc1ccc(N2CCN(C(=O)C3CCN(C(=O)c4cccc(Cl)c4)CC3)CC2)cc1	-5
CCSC1=N/C(=C\C=C2/Oc3ccccc3N2CC)C(=O)S1	-1
Cc1ccc(S(=O)(=O)NN2C(=O)/C(=C/c3ccc(F)cc3)SC2=S)cc1	5

Going on with the list.
SMILES	FGF22 binding	Beta apoptosis	Calb FLC	T cruzi inh	RanGTP-Imp inh	rRNA inh HTS	rRNA inh HTS OD600	rRNA inh HTS RFP	ALR H2O2 inh	AF4-AF9 inh
O=C(N/N=C/C=C/c1ccccc1[N+](=O)[O-])c1cccnc1	i	-7	10	-13	-1.3	6	13	-0.1	x	-0.6
CCOC(=O)/C(=N\Nc1ccc(Cl)cc1)Sc1nnc(-c2ccc(OC)cc2)n1C	x	0	6	26	1.2	x	x	x	19	x
Clc1ccccc1OCCCCN1CCCCC1	i	-2	-8	15	4.2	10	-1	0.4	-1	-1.4
Cc1ccc(CCNC(=O)CN2C(=O)COc3ccc(S(=O)(=O)N4CCOCC4)cc32)cc1	i	-1	-5	49	4.0	0	0	-0.4	1	-0.4
Cc1ccc(NS(=O)(=O)c2ccc(NC(=O)c3ccccc3C(=O)O)cc2)cc1C	i	-8	-6	1	-3.8	-10	-12	0.5	-1	-0.3
COc1ccc(C2=Nn3c(nnc3-c3ccccc3C(F)(F)F)SC2)cc1OC1CCOC1 (centres undefined)	i	6	x	x	x	2	11	2.9	1	-7.9
COc1cccc(/C=C2\SC(=S)N(CCCC(=O)N(CCO)c3ccccc3)C2=O)c1	i	-49	0	45	-1.3	-26	-45	31	-3	2.6
CCCOc1ccc(/C=N/NC(=O)C(=O)Nc2ccccn2)cc1	x	-8	u	4	-1.5	x	x	x	30	x
Cc1ccc(C(C)NC(=O)C2CCCO2)cc1C (centres undefined)	x	1	-11	-1	1.4	x	x	x	-4	x
CC(C)Cn1c(N)c(C(=O)CSc2nnc(-c3ccco3)n2C)c(=O)n(C)c1=O	i	5	x	x	x	7	18	2.2	x	-1.3
CCOC(=O)c1[nH]c2ccccc2c1NC(C)=O	i	-8	18	-13	7.0	6	4	1.4	-7	-0.3
O=C(CSC1=NCCS1)N1CCN(c2ccccc2)CC1	x	4	8	-14	5.4	x	x	x	62	x
COC(=O)c1ccc(NC(=S)NC(=O)c2cc(-c3ccccc3)nc3ccccc23)cc1	x	-6	4	12	6.5	x	x	x	2	x
O=C(NCc1cccnc1)C(=O)NCC(c1ccco1)N1CCN(c2ccccc2F)CC1 (centres undefined)	x	0	16	4	3.8	x	x	x	1	x
Cc1ccc2nc(C)c(C)nc2c1N	x	3	-8	-33	-3.0	x	x	x	2	x
CC(C)C(NC(=O)c1ccccc1)C(=O)OCc1cc([N+](=O)[O-])cc2c1OCOC2 (centres undefined)	i	11	u	19	0.0	-4	-9	-2.0	4	0.0
O=C1c2ccccc2C(=O)N1CCCc1nc(-c2ccc(Cl)cc2)no1	i	x	-2	-9	2.6	6	11	-1.1	-1	0.1
CSc1oc(-c2ccc(F)cc2)nc1S(=O)(=O)c1ccccc1	x	x	-2	17	3.2	x	x	x	-6	x
CCOC(=O)c1c(C)[nH]c(C(=O)OCC(=O)Nc2sc(C(=O)N(C)C)c(C)c2C(=O)OCC)c1C	i	6	-4	69*	x	1	11	0.6	-8	-0.2
COc1ccccc1N1CCN(C(=O)c2cc(-c3cccs3)on2)CC1	x	1	10	-8	-1.2	x	x	x	-20	x
Cc1cc(C(=O)NCc2cccs2)ccc1[N+](=O)[O-]	x	1	6	-8	-0.2	x	x	x	-3	x
COc1ccc(-n2nc3c(N4CCC(C(=O)NCc5cccc(C)c5)CC4)nnc(C)c3c2C)cc1	i	37	70	26	-4.4	1	0	1.6	-3	6.4
COc1cc(/C=C(/C#N)C(=O)Nc2ccc(C)cc2)ccc1Oc1nc(Cl)ncc1F	x	-1	37	-16	2.4	x	x	x	-1	x
O=C(Nc1ccc(F)cc1)c1ccc(C(=O)N2CCCC(O)C2)cc1 (centres undefined)	i	-10	-6	-8	4.4	6	4	-14	-9	0.1
CCOc1ccccc1C(c1c(C)n(C)n(-c2ccccc2)c1=O)c1c(C)n(C)n(-c2ccccc2)c1=O	i	3	0	8	-2.0	3	5	-3.2	-25	-3.2
CCN(CC(=O)Nc1ccc(NC(C)=O)cc1)C(=O)COc1ccccc1Cc1ccccc1	i	2	-5	-2	-2.6	-5	-16	-0.1	-10	-2.0
COc1ccc(-c2cc(C(=O)Nc3ccc4c(c3)OCO4)no2)cc1	i	-6	-6	5	0.5	6	12	-1.9	-4	-3.4
O=C(O)c1ccc(N/N=C/c2ccc3nccnc3c2)cc1	i	5	2	-4	-2.2	-1	-7	-0.3	63	7.2
CN(C)c1nc(NCc2ccccc2)nc(N/N=C/c2ccc(Br)cc2)n1	i	10	-17	19	3.7	4	0	3.1	-1	-0.6
COc1nnc(-c2ccc(C)c(S(N)(=O)=O)c2)c2ccccc12	i	1	-6	13	-0.4	-18	-7	0.8	-24	-2.4
CCN=C1S/C(=C\c2cc(Cl)c(OC)c(OC)c2)C(=O)N1CC	i	-8	-5	-5	-1.6	9	5	-0.7	5	0.9
CCOc1ccc(C(=O)NCC(=O)N2CCN(c3ccc(C(F)(F)F)cn3)CC2)cc1	i	1	x	x	x	5	6	-2.0	2	-3.5
O=C(O)c1ccc(-n2cccc2/C=C2/SC(=O)N(CC(=O)N3CCCC3)C2=O)cc1	i	0	-2	-10	2.8	6	4	-0.8	2	-3.7
O=C(NOCc1ccccc1)c1ccccc1	i	-2	-10	-19	5.1	6	3	12	-8	0.7
Cc1ccc(-c2nnn(CC(=O)N(CC(=O)NC3CCCCC3)c3cccc(F)c3)n2)o1	i	x	0	2	3.1	4	15	0.9	x	-0.4
CCOC(=O)C1CCN(Cc2c(O)c3ccccc3oc2=O)CC1	i	-6	3	-6	1.9	-27	-44	-4.0	8	-8.2
O=Cc1cc2ccccc2nc1SCc1ccc(Cl)c(Cl)c1	x	57	-7	4	-1.2	x	x	x	-12	x
CC1CCCC(NC(=O)Cn2cc(C(F)(F)F)cc(Cl)c2=O)C1C (centres undefined)	i	4	x	x	x	0	0	1.4	x	-2.7
Cc1ccc(CSc2ncnc3ccccc23)cc1	i	x	12	-21	-2.6	-33*	-25*	-1.2*	-15	-8.9
COc1ccc(CN2CC(C(=O)NCCCN3CCCCCC3)CC2=O)cc1 (centres undefined)	x	-1	7	1	5.8	x	x	x	2	x
CCC(=O)Nc1cc2c3c(c1)CCN3C(=O)CC2	i	-2	-3	12	-0.3	5	3	-3.7	-50	-7.9
S=C(NCc1ccc(Cl)cc1)Nc1ccccc1	i	-11	-28	-3	3.9	-16	-6	-2.8	32	2.2
COc1cccc(/C=C/C(=O)OCC(=O)N2CCN(S(=O)(=O)c3ccc(Cl)cc3)CC2)c1	i	x	-7	29	-3.1	3	10	-1.3	-1	-1.9
CCn1c(N)c(C(N)=O)sc1=S	x	-18	2	x	-2.6	x	x	x	98*	x
CCc1ccc(C(=O)NC(=S)Nc2ccc(N3CCOCC3)cc2)cc1	i	-4	19	9	2.0	9	16	3.7	-6	-0.5
O=C(CN1C(=O)NC2(CCCc3ccccc32)C1=O)N1CCN(c2cccc(C(F)(F)F)c2)CC1 (centres undefined)	i	4	x	x	x	3	3	-3.0	-5	-1.4
COc1ccc(/C=N/NC(=O)c2ccc(F)cc2)cc1CN1CCc2cc(OC)c(OC)cc2C1C (centres undefined)	i	-7	-12	7	4.6	-23	-44	-12	-2	9.3
COc1cc(C)ccc1OCCCCNCc1ccccc1	i	6	-5	26	2.6	2	3	1.0	-12	-14
